Screening results (PubChem)
rRNA inh HTS: inhibitors of bacterial rRNA selective over humanized ribosomes; E. coli WT GFP vs humanized-ribosome RFP mutants, fluorescence, 24 h; active compounds read low; DMSO median 0, no signal -100; GFP signal change (wild-type ribosome), % (test concentration not listed); 350,000 tested, 1.6% active; AID 720706;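 active means significant combined selectivity score with lowered wild-type GFP, culture density cut under 30%, mutant RFP and density less affected; inactive means any of these conditions unmet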; further: one replicate is shown; some compounds called inactive have numbers as strong as hits
Vif A3G: inhibitors of Vif binding to APOBEC3G peptide, primary screen, biochemical, TR-FRET, GST-Vif 1-94, biotin-A3G peptide, dose response retest (AID 1117319). TR-FRET GST-Vif / biotin-A3G peptide binding; higher % means a stronger effect; test concentration not given here; strong numbers were not always called active. inhibition, %; hits with a dose series show IC50 in µM. 260,000 tested, 0.57% active;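 active means above the screen mean plus three standard deviations and confirmed in dose response; inconclusive means results disagree or hit not tested in dose response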;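 further: Vif residues 1-94 fused to GST binding biotinylated APOBEC3G peptide 110-148; 0% = full assay without inhibitor and 100% = GST in place of GST-Vif; retest series ran down from 100 µM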
HNF4A DNA FP: change in binding of human HNF4 alpha to DNA; AID 1224865; HNF4a-FITC DNA binding, fluorescence polarization, 1 h; activity change, % at 10 µM; P41235; 360,000 tested, 0.3% active; in the data active means activity change above about 30%, passing the limit was not always enough;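 further: controls were the assay level and a saturating level of protein; the project sought stronger binding though the title names inhibitors; some compounds called inactive have numbers as strong as hits; positive values seem to mean higher polarization but the record does not say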
ALR inh: human ALR oxidase inhibition via reduced H2O2; P55789; purified ALR, DTT oxidation, H2O2 HRP-luminol luminescence; inhibition, % (test concentration not listed); 290,000 tested, 3.8% active; AID 485317;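 active means mean and each replicate at 75% or more; inconclusive means only one of the two met; inactive means neither met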;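 further: stock transfer was 7.5 nL into about 7.5 µL; 0% = neutral wells and 100% = wells with inactivated enzyme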
Target sequence (P55789 whole entry, looked up): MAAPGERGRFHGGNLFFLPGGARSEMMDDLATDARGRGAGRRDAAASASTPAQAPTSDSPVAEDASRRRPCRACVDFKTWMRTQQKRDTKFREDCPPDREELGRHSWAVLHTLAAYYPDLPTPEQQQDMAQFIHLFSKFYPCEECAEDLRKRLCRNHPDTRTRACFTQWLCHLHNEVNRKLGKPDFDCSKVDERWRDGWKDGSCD
FGF22 binding: binders of recombinant human FGF22 by thermal shift | SYPRO orange fluorescence; percent of sucrose octasulfate shift, DMSO zero | AID 651658 | calls only at 9.99 µM | 340,000 tested, 1.5% active;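 active means melting point raised past a set limit in the mean and every replicate; inconclusive means no clear call; three in four hits are not shown here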
Target sequence (Q9HCT0 whole entry, looked up): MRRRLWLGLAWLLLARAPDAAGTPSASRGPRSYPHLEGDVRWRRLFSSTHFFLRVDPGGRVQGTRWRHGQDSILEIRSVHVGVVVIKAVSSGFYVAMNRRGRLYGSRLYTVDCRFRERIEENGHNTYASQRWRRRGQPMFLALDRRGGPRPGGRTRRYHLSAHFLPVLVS
Ecoli growth: inhibitors of Escherichia coli growth | 330,000 tested, 0.21% active | OD600, 23 h; active compounds read low | AID 1053175 | OD600 absorbance (concentration not given with the values);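 active means OD600 absorbance below the run mean of sample wells minus 3.6 SD, in any replicate, cut at about 0.56 in these data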;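 further: stock transfer was 300 nL into about 60 µL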
AF4-AF9 inh: inhibitors of human MLL-AF4/AF9 interaction | AlphaScreen, biotin-AF4 peptide binding to FLAG-AF9 | inhibition, % at 10 µM | 350,000 tested, 0.47% active;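 active means every replicate reaching a set inhibition limit, whatever the replicate mean, cut at about 25% in these data; inconclusive means mean inhibition reaches that limit but some replicates miss it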;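 further: 0% = plate neutral control median and 100% = total signal loss; the record names both 10 and 1 µM as test concentration; the first replicate is given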
Target sequence (P42568 whole entry, looked up): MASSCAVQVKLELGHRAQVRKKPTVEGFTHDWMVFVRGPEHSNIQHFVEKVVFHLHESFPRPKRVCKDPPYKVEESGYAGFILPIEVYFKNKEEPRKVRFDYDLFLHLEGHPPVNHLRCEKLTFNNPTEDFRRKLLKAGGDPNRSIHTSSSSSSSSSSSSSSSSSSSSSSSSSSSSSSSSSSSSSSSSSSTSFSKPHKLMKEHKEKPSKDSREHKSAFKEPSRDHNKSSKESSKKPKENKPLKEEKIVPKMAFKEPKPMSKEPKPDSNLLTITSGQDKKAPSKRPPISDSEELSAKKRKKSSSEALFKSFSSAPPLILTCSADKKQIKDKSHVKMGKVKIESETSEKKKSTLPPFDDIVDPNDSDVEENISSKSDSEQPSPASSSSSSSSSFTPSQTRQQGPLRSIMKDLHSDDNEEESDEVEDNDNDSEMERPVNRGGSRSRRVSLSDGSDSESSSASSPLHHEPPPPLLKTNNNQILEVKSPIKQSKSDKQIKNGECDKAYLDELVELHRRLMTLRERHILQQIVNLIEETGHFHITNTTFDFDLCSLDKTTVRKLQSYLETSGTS
rRNA inh HTS OD600: also measured in rRNA inh HTS; calls as there; OD600 change, %; measured here: OD600 growth;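 optical density of the mix in the first replicate; 0 = DMSO median and -100 = no signal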
rRNA inh HTS RFP: recorded beside rRNA inh HTS, whose call it bears; RFP signal change, %; measured here: RFP humanized mutant strains;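 first replicate; 0 = DMSO median and -100 = no signal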
Active calls of the source: *; i = inactive; ? = inconclusive; nt = no result given; & = joins results of further samples. This is a subset; count on the stated rates, not on these rows.

SMILES	rRNA inh HTS	rRNA inh HTS OD600	rRNA inh HTS RFP	Vif A3G	HNF4A DNA FP	ALR inh	FGF22 binding	Ecoli growth	AF4-AF9 inh
Cc1oncc1-c1csc(-c2ccccc2Cl)n1	-14	-6	1.1	-12%	1.7	16	i	0.69	-4.0
COc1ccc(C(=O)NC(CC(=O)O)c2cc([N+](=O)[O-])ccc2Cl)cc1 (centres undefined)	-1	9	0.5	-3%	0.2	-3	i	0.7	-2.2
O=C(N[C@@H]1CC[C@@H](CC(=O)N2CCOCC2)O[C@H]1CO)c1ccccn1	2	0	-0.9	nt	nt	nt	i	nt	2.7
CCC(=O)N1CCc2cc(S(=O)(=O)N3CCN(c4cc(C)ccc4C)CC3)ccc21	nt	nt	nt	nt	-2.5	-2	nt	0.67	nt
Cc1cn([C@H]2C[C@H](O)[C@@H](CNC/C=C/c3ccccc3[N+](=O)[O-])O2)c(=O)[nH]c1=O	4	6	-0.7	5%	-0.3	nt	i	nt	-1.9
CC(=O)c1cccc(NC(=O)Cn2cc3c(n2)CCCC3)c1	5	11	-0.6	-2%	-1.0	13	i	0.77	-2.3
C[C@H]1CN([C@@H](C)CO)C(=O)c2cc(NC(=O)CCCN(C)C)ccc2O[C@@H]1CN(C)S(=O)(=O)c1cccs1	0	-7	1.8	nt	nt	nt	i	nt	0.5
CN1CC(=O)N(CC(=O)Nc2ccc(OCc3ccccc3)cc2)C1=O	2	2	-2.7	nt	1.1	6	i	0.66	6.1
O=C1/C(=C/c2cccnc2)CC/C1=C\c1cccnc1	-2	6	3.8	-3%	2.3	3	i	0.69	-35
Cc1occc1-c1nnc(SCC(=O)NC2CCCC2)n1C	2	4	1.5	nt	-2.5	12	i	0.67	-3.7
Cc1nnc(NC(=O)CSc2nnc(CNC(=O)c3ccc(F)cc3)o2)s1	nt	nt	nt	0%	5.0	5	i	0.69	-2.0
CCN(CC)S(=O)(=O)c1ccc(-c2csc(C)n2)cc1	2	5	7.7	17%	-1.2	58	i	0.62	-2.6
O=C(O)CSCC(=O)N1CCCN(c2nc3ccc(Cl)cc3s2)CC1	-6	-14	-3.6	9%	-6.0	2	i	0.67	nt
CC(C)C(=O)NC(=O)[C@@H]1CCCN1C(=O)/C=C/c1ccccc1	12	12	-0.5	0%	-2.9	-1	i	nt	1.1
O=C(NCC1CCCO1)c1nc(Cn2ccc([N+](=O)[O-])n2)no1 (centres undefined)	8	14	-4.0	nt	-2.8	-3	i	0.68	-9.4
C[C@H]1CN([C@@H](C)CO)C(=O)c2cc(NS(=O)(=O)c3cccs3)ccc2O[C@H]1CN(C)Cc1ccc(C(F)(F)F)cc1	-3	-23	5.2	nt	nt	nt	i	nt	3.0
O=c1[nH]cnc2sc3c(c12)CCC3	-8	0	1.7	23%	-2.9	-4	i	0.64	-6.9
COC(=O)c1ccc2nc(-c3cccc(Cl)c3)c(Cc3cccc(Cl)c3)n2c1	-5	3	12	nt	3.7	nt	i	nt	0.4
O=c1c2ccccc2nc(SCc2ccc([N+](=O)[O-])cc2)n1-c1ccc(Cl)cc1	nt	nt	nt	-6%	1.1	1	i	0.73	0.0
Cc1ccc(S(=O)(=O)[N-]c2nc3ccccc3nc2-[n+]2cc(C)cc(C)c2)cc1	18	5	-1.8	?	-8.5	0	i	0.63	-0.4
COc1ccc(C(=O)n2nc(-c3ccco3)nc2SC)cc1OC	7	4	-5.0	15%	-3.6	20	nt	0.68	nt
CCCNC(=O)N1C[C@H](C)[C@@H](OC)CN(C)C(=O)c2ccc(NC(=O)C3CCC3)cc2OC[C@H]1C	-2	-8	-2.2	nt	nt	nt	i	nt	-2.3
Cn1c2cc(Br)sc2c2cnn(Cc3ccc(F)cc3F)c(=O)c21	3	2	-4.2	nt	0.2	nt	i	0.66	-0.4
O=C(NCCN1CCN(C(=O)c2ccc(F)cc2)CC1)C(=O)NCc1ccccc1	3	0	-1.2	nt	-0.3	-3	i	0.64	1.4
COCc1cn(CC[C@@H]2CC[C@@H](NC(=O)Cc3cccnc3)[C@@H](CO)O2)nn1	0	-6	-2.3	nt	nt	nt	i	nt	-3.2
(cont.)
SMILES	rRNA inh HTS	rRNA inh HTS OD600	rRNA inh HTS RFP	Vif A3G	HNF4A DNA FP	ALR inh	FGF22 binding	Ecoli growth	AF4-AF9 inh
CCCNC(=O)N(C)C[C@@H]1Oc2ncc(-c3ccc(OC)cc3)cc2C(=O)N([C@@H](C)CO)C[C@@H]1C	1	15	-3.3	nt	nt	nt	i	nt	-2.6
O=C(NC1CS(=O)(=O)CC1NCc1ccccc1)c1ccccc1 (centres undefined)	nt	nt	nt	-3%	1.5	-7	nt	0.8	nt
Cc1cccc2cc(CN(Cc3cccs3)C(=S)NCc3ccco3)c(=O)[nH]c12	nt	nt	nt	-21%	-1.0	1	nt	0.74	nt
COc1cc(OC)c(C(=O)NC2CCCc3ccccc32)cc1OC (centres undefined)	-7	-15	0.5	nt	4.0	-1	i	0.7	2.3
CCOC(=O)C1(Cc2ccccc2C)CCCN(C(=O)CCc2c(C)noc2C)C1 (centres undefined)	1	1	5.5	nt	-0.7	-8	i	0.68	-10
C[C@@H]1CN([C@@H](C)CO)C(=O)c2c(c3ccccc3n2C)-c2ccccc2CO[C@@H]1CN(C)C(=O)Nc1ccc2c(c1)OCO2	0	4	0.4	nt	nt	nt	i	nt	1.9
CCc1ccc(/C=N/NC(=O)c2cc(-c3cccc([N+](=O)[O-])c3)n[nH]2)cc1	-19*	-0.3*	1.7*	2%	1.7	-8	i	nt	2.7
Cc1c(C(=O)OCC(=O)N(C)C2CCS(=O)(=O)C2)oc2ccc(Br)cc12 (centres undefined)	13	3	-2.6	0%	2.8	-4	i	0.69	1.2
C/C(=N\NC(=O)c1ccccc1OCCOc1ccccc1)c1ccccc1F	-4	-11	2.5	1%	7.5	nt	i	nt	0.8
O=C(CN(C(=O)c1csnn1)c1ccccc1)NCCc1ccccc1	5	6	0.7	nt	-1.4	-1	i	0.65	5.2
COc1cc(Cn2c3ccc(NC(=O)CC(C)C(F)(F)F)cc3c(=O)n2C)ccc1F (centres undefined)	3	2	-3.6	nt	5.8	nt	i	nt	-0.1
O=C(COC(=O)/C=C/c1ccccc1Cl)NC1CC1	-9	-4	-1.0	2%	0.4	nt	nt	nt	4.2
CCN1CCN(S(=O)(=O)c2ccc(Cl)c(C(=O)NC(C)(C)C)c2)CC1	18	9	0.5	2%	6.0	-6	i	0.67	-2.8
COc1cccc(C(C)(O)c2nc(-c3ccc(N(C)C)cc3)cs2)c1 (centres undefined)	-1	-50	8.7	nt	-2.8	nt	i	nt	6.6
O=C1C2CC=CCC2C(=O)N1c1cccc(OS(=O)(=O)c2ccc3ccccc3c2)c1 (centres undefined)	nt	nt	nt	-9%	1.2	-8	nt	0.75	nt
COC(=O)c1ccc(/C=C2\CCn3c2nc2cc(C(=O)O)ccc2c3=O)cc1	nt	nt	nt	nt	-0.3	-6	nt	0.69	nt
O=C(C[C@H]1CC[C@H]2[C@@H](COC[C@@H](O)CN2Cc2cccc(Cl)c2)O1)N1CCOCC1	8	17	-2.7	nt	nt	nt	i	nt	-1.1
Nc1nc(SCC(=O)N2CCCCC2)[nH]c(=O)c1NC(=O)c1ccccc1F	1	8	0.3	4%	-2.0	6	i	0.73	-2.0
O=C1CC(NCc2cccs2)C(=O)N1c1ccc(Cl)cc1 (centres undefined)	nt	nt	nt	7%	1.0	-13	nt	0.71	nt
CC(C)NC(=O)Nc1ccc2c(c1)C(=O)N([C@H](C)CO)C[C@H](C)[C@@H](CN(C)Cc1ccc(C(F)(F)F)cc1)OCCCC[C@@H](C)O2	-9&-3	1&-2	2.2&-4.2	5%	0.9	nt	i	nt	6.0&-0.5
Cc1ccc(-c2nnc(N3CCCCC3)c3ccccc23)cc1S(=O)(=O)NCC1CCCO1 (centres undefined)	-50	-70	-19	-3%	0.5	-4	i	0.72	-2.8
C[C@@H]1CN([C@@H](C)CO)S(=O)(=O)c2ccc(Br)cc2O[C@@H]1CN(C)C(=O)NC1CCCCC1	7&-7	7&-7	-1.9&-1.4	1%	4.8	nt	i	nt	-0.6&-5.5
CCc1c(C)nc2cc(-c3ccc(OC)cc3)[nH]n2c1=O	nt	nt	nt	7%	2.5	19	nt	0.64	nt
CCOC(=O)c1ccc(N2C(=O)c3cccc4c(C(=O)O)ccc(c34)C2=O)cc1	2	-3	0.3	nt	-0.7	0	i	0.68	0.4
Cc1ccc(C)c(NC(=O)C(C)CC2COCCO2)c1 (centres undefined)	nt	nt	nt	7%	-1.4	0	nt	0.7	nt
Remaining list, next part
SMILES	rRNA inh HTS	rRNA inh HTS OD600	rRNA inh HTS RFP	Vif A3G	HNF4A DNA FP	ALR inh	FGF22 binding	Ecoli growth	AF4-AF9 inh
N#Cc1ccc(C(=O)Nc2cccc3cccnc23)c(F)c1	14	14	-0.5	-2%	44*	-5	i	0.7	-2.7
COc1ccccc1-c1cnc2c(c1)C(=O)N([C@H](C)CO)C[C@H](C)[C@@H](CN(C)C)O2	1	2	1.7	nt	nt	nt	i	nt	-21
CCc1nc2ccccc2c(C(=O)OC2CCOC2=O)c1C (centres undefined)	nt	nt	nt	3%	1.5	nt	nt	0.73	nt
O=C(CSc1nnc(C2CC2)n1C1CC1)c1ccccc1F	-1	-1	1.5	nt	-0.9	nt	i	0.7	-9.4
CN1/C(=C\C=N\O)C(C)(C)c2ccccc21	6	0	24	-4%	0.9	-30	i	nt	1.8
CCOc1ccc2nc(NC(=O)CSc3nnc(-c4ccncc4)n3CC3CCCO3)sc2c1 (centres undefined)	nt	nt	nt	nt	2.6	?	nt	0.72	nt
NS(=O)(=O)c1ccc(CCNC(=O)COc2ccc3c4c(c(=O)oc3c2)CCC4)cc1	13	7	1.5	nt	3.1	5	i	0.68	-7.1
CS(=O)(=O)N1[C@H](C#N)[C@H](c2ccccc2-c2ccccc2)[C@@H]1CO	5	6	-0.1	nt	nt	nt	i	nt	-1.8
Cc1cc2cc3c(cc2nc1SCC(=O)N1CCOCC1)OCO3	-3	-4	0.9	nt	2.5	-6	nt	0.69	0.3
CCCNC(=O)c1nnsc1Sc1ccc(Cl)cc1	2	1	-0.9	3%	0.3	nt	nt	0.67	0.0
CC(=O)Nc1ccn(Cc2c(F)cccc2Cl)n1	nt	nt	nt	-2%	3.3	2	nt	0.65	nt
CCC(=O)Nc1ccc(Cl)c(NC(=O)c2c(OC)cccc2OC)c1	3	-7	-0.8	nt	0.2	-3	i	0.69	-1.3
CCOc1ccc(NC(=O)c2ccco2)c([N+](=O)[O-])c1	18	8	-0.6	3%	-0.8	-23	i	0.73	1.8
CSc1ccc(C(=O)C2CCCN(C(=O)c3ccsc3)C2)cc1 (centres undefined)	-13	-14	-5.3	0%	1.5	-12	i	0.7	-1.6
Cc1ccc(S(=O)(=O)NC(C(=O)N2CCOCCOCCOCC2)C(C)C)cc1 (centres undefined)	6	6	-1.2	nt	0.8	-7	i	0.67	-2.3
Cc1cc(C)cc(NC(=O)CCC(=O)Nc2cc(C)on2)c1	nt	nt	nt	11%	0.8	nt	nt	0.65	nt
